# Screens deposited in PubChem BioAssay by National Center for Advancing Translational Sciences (NCATS).
# LASV entry inh: blocks Lassa virus binding to or entry into cells; Lassa virus pseudotype entry inhibition, cell reporter; control for the full effect not named in the record; Potency, µM (highest dose often 37.9 µM), without a hit: at the highest dose activity change, negative = inhibition, usual class: inhibitors; actives 1.2% (n = 300,000); AID 540256; active means well fitted inhibition curve with a large enough effect; inconclusive means small, poorly fitted or top-dose-only effect, or effect the other way; inactive means flat fitted curve, though single readings scatter; tested in HEK293 cells; note: % is set by controls: 0 for no effect and ±100 for the full control effect; nearly all actives have a fitted effect of over 50% in size; luciferase read-out
# Cruzain Triton: blocks cruzain activity in presence of Triton detergent | actives 0.43% (n = 200,000) | Potency, µM, without a hit: max response, negative = inhibition, hits mostly inhibitors | purified cruzain, Z-FR-AMC fluorescence, 0.01% Triton | P25779; active = well fitted curve in the direction sought with a large enough effect; inconclusive = small, poorly fitted or top-dose-only effect, or another doubt; inactive = no such curve, though single readings can be large; an effect the other way counts as inactive or inconclusive;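 note: plate controls were neutral wells for no effect and buffer without enzyme for full effect; nearly all actives have a fitted effect of over 40% in size; top concentration of the series not given in the record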
# Target sequence (P25779 123-467 limits assumed): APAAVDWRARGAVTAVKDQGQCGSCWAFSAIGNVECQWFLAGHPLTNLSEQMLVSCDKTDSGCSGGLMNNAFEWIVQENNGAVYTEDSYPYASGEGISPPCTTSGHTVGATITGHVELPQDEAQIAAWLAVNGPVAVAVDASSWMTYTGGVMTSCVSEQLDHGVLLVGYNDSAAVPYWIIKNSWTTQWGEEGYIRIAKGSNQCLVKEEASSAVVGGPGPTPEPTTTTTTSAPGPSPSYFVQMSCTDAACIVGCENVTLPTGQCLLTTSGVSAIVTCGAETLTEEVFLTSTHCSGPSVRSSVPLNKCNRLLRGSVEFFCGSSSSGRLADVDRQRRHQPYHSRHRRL
#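 Detergent-containing run (0.01% Triton X-100) in acetate buffer pH 5.5 with 5 mM DTT: enzyme at 1.5 nM final, 15 min compound preincubation at room temperature, then 2 uM Z-FR-AMC substrate. Activity taken as 60 s fluorescence increase at 360/450 nm.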
# RE007 growth inh: less growth of the S. pombe RE007 Vpr strain. S. pombe RE007 Vpr strain, BacTiter-Glo ATP luminescence, 24 h; control for the full effect not named in the record. Potency, µM (series often up to 92.2 µM), for the others: at the top dose activity change, negative = less growth. actives 0.21% (n = 360,000); active = well fitted falling curve with a large enough effect; inconclusive = small, poorly fitted or top-dose-only effect; inactive = no such curve, though single readings can be large or run the other way;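 note: % is set by controls: 0 for no effect and ±100 for the full control effect; nearly all actives have a fitted effect of over 50% in size; the assay follows cell death caused by Vpr and the record does not say whether a fall means rescue or toxicity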
#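 Fission yeast RE007 carrying one integrated HIV-1 vpr copy, seeded at OD 0.01 in PMG+AL medium with 23 nL pinned compound. Grown 24 h at 30 degrees; viability read by BacTiter-Glo luminescence after 5 min.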
# NS1 inh: influenza NS1 inhibition; S. cerevisiae slowed by influenza A NS1, growth recovery by OD600; Potency, µM (top dose mostly 46.1 µM), for the others: at the highest dose activity, positive = more growth; actives 0.4% (n = 270,000); AID 2326; note: actives are rising curves; nearly all actives have a fitted effect of over 50% in size
#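 Read-out: OD600 growth recovery of NS1-expressing budding yeast. Cells grown overnight at 30C in -URA glucose medium, washed, resuspended and diluted 1:100 in 2% galactose assay medium, pH 6.0. Same strain lacking NS1 served as positive control.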
# Marburg entry inh: Marburg virus entry inhibition. actives 1.8% (n = 300,000). Marburg virus pseudotyped entry inhibition, cell reporter; control for the full effect not named in the record; about a third of the inactives were read at about 46 µM. Potency, µM (highest dose often 37.8 µM), for the others: at the highest dose activity change, negative = inhibition, most hits filed as inhibitors. AID 540276; active = well fitted inhibition curve with a large enough effect; inconclusive = small, poorly fitted or top-dose-only effect, or effect the other way; inactive = flat fitted curve, though single readings scatter; tested in HEK293 cells; about a fifth of its hits are not listed in these tables; note: % is set by controls: 0 for no effect and ±100 for the full control effect; luciferase read-out
# StopGo reporter: lowers the luciferase signal of an FMDV 2A StopGo reporter; human cells with a luciferase reporter of 2A StopGo recoding; control for the full effect not named in the record; Potency, µM (top dose mostly 57.9 µM), without a hit: top-dose signal change, negative = less light; actives 1.2% (n = 410,000); AID 1159524; active = well fitted falling curve with a large enough effect; inconclusive = small, poorly fitted or top-dose-only effect; inactive = no such curve, though single readings can be large or run the other way; tested in HEK293T cells; note: % is set by controls: 0 for no effect and ±100 for the full control effect; nearly all actives have a fitted effect of over 45% in size; luciferase light after 4 h
# SARS PLpro yeast: inhibitors of SARS-CoV papain-like protease in yeast; Potency, µM (top dose mostly 32.9 µM), without a hit: at the top dose activity, positive = growth rescue; actives 0.19% (n = 330,000); S. cerevisiae expressing SARS-CoV PLpro, growth rescue; control for the full effect not named in the record; AID 485353; note: 0% is about no effect; nearly all actives have a fitted effect of over 55% in size; growth read by luminescence after 48 h
# Cruzain inh noDet: cruzain (T. cruzi) inhibition without detergent; AID 1476; actives 2.3% (n = 200,000); Potency, µM, for inactives: max response, negative = inhibition, usual class: inhibitors; P25779; purified cruzain, Z-FR-AMC fluorescence, no detergent; active = well fitted curve in the direction sought with a large enough effect; inconclusive = small, poorly fitted or top-dose-only effect, or another doubt; inactive = no such curve, though single readings can be large; an effect the other way counts as inactive or inconclusive;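 note: plate controls were enzyme without inhibitor for no effect and buffer without enzyme for full effect; nearly all actives have a fitted effect of over 40% in size; top concentration of the series not given in the record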
#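 Purified cruzain at 1.5 nM, pre-incubated 15 min with compound at room temperature in 100 mM sodium acetate pH 5.5, 5 mM DTT, 0.00005% Triton X-100. Reaction started with 2 uM Z-FR-AMC; AMC fluorescence increase over 60 s gives rate.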
# * = called active by the depositor; ? = inconclusive; . = not tested or not shown; & = joins results of further samples; [ ] = another dose, or the depositor's remark. Unless noted, calls come from the whole dose curve; as a rule, active means well fitted rising curve with a large enough effect; inconclusive means small, poorly fitted or top-dose-only effect; inactive means no such curve, though single readings can be large or run the other way. Potency is the fitted concentration of half-maximal effect.
# Preview (3 entries):
SMILES,LASV entry inh,Cruzain Triton,RE007 growth inh,NS1 inh,Marburg entry inh,StopGo reporter,SARS PLpro yeast,Cruzain inh noDet
C/C(CC(=O)Nc1ccc([N+](=O)[O-])cc1)=N\NC(=O)c1ccccc1[N+](=O)[O-],13%,.,0%,-17%,22%,-10%,-10%,.
C=CCNc1ncnc2ccc(Br)cc12,1%&-2%,2.0%,13%,?,-1%&-14%,?,0%,-9%
CC(NC(=O)c1ccc(Nc2nc3ccccc3n3nnnc23)cc1)c1ccccc1 (centres undefined),1%[46.1 µM],0.0%,.,.,30%[46.1 µM],?,.,-4%

# The listing, from the first entry:
SMILES,LASV entry inh,Cruzain Triton,RE007 growth inh,NS1 inh,Marburg entry inh,StopGo reporter,SARS PLpro yeast,Cruzain inh noDet
C/C(CC(=O)Nc1ccc([N+](=O)[O-])cc1)=N\NC(=O)c1ccccc1[N+](=O)[O-],13%,.,0%,-17%,22%,-10%,-10%,.
C=CCNc1ncnc2ccc(Br)cc12,1%&-2%,2.0%,13%,?,-1%&-14%,?,0%,-9%
CC(NC(=O)c1ccc(Nc2nc3ccccc3n3nnnc23)cc1)c1ccccc1 (centres undefined),1%[46.1 µM],0.0%,.,.,30%[46.1 µM],?,.,-4%
O=C(Cc1c[nH]c2ccccc12)NCc1ccc(Cl)cc1,20%,-2.2%,10%,-20%,-8%,38%[activator],-2%,7%
COC(=O)c1ccc(NS(=O)(=O)NC(=O)c2c[nH]c3ccccc23)cc1,.,.,7%,-1%,.,-7%,-5%,.
COc1ccc(OC)c(Nc2cc(C(=O)NCc3ccccc3)c3ccccc3n2)c1,-9%[46.1 µM],6.5%,.,.,-4%[46.1 µM],-22%,.,-5%
COc1ccccc1CCNC(=O)c1cccn1-c1nnc(N2CCCCC2)s1,8%[46.1 µM],-4.2%,.,.,.,14%,.,-4%
Cc1ccsc1C(=O)NCCc1ccc(S(N)(=O)=O)cc1,-2%[46.1 µM],.,9%,15%,?,13%,3%,.
O=C(/C=C/c1ccc([N+](=O)[O-])cc1)NCc1ccc2c(c1)OCO2,.,.,5%,-3%,.,5%,0%,.
NC(=O)c1c(NC(=O)C2COc3ccccc3O2)sc2c1CCN(Cc1ccccc1)C2 (centres undefined),.,.,5%,-11%,-13%[46.1 µM],-5%,1%,.
CC(C)CNC(=O)C(=O)NCC1OCCCN1S(=O)(=O)c1ccc2c(c1)OCCO2 (centres undefined),12%,.,4%,1%,?,-3%,-2%,.
COc1ccc(C(=O)NN(C)c2nc(-c3ccccc3)cc(C)c2S(C)(=O)=O)cc1,-25%,-0.2%,22%,3%,?,-25%,2%,-2%
NS(=O)(=O)c1ccc(CCNC(=O)CSc2cccs2)cc1,-2%[46.1 µM],.,5%,-1%,-1%[46.1 µM],3%,-1%,.
CC(Sc1nnc(C(C)N(C)C)n1-c1ccc(Cl)cc1)C(=O)Nc1ccc2c(c1)OCO2 (centres undefined),-2%,2.2%,-8%,2%,-22%[46.1 µM],18%,3%,-10%
COc1ccc(Nc2nc(-c3ccccc3)c3cc(Br)ccc3n2)cc1,-23%[46.1 µM],-1.8%,.,.,.,7%,.,?
S=c1[nH]nc(-c2ccc3ncccc3c2)n1-c1ccc2c(c1)OCCO2,-11%,.,-5%,.,-3%[46.1 µM],25%,-1%,.
Cc1ccccc1-c1n[nH]c(=S)n1/N=C/c1c(C)nn(-c2ccccc2)c1C,?,-7.2%,2%,10%,?,-4%,14%,-7%
CCOC(=O)Nc1nnc(-c2cccc(OC)c2)s1,-7%,1.5%,-30%,-17%,17%,40%[activator],-17%,7%
COc1ccc(CN2C(=O)CN=C2Nc2ccc(C)cc2C)cc1,-9%,0.9%,1%,-8%,-1%&1%,-7%,2%,5%
Cc1ccc(CNc2nc3c(c(=O)n(C)c(=O)n3C)n2Cc2ccc(Cl)cc2)cc1,0%[46.1 µM],-0.1%,.,.,4%[46.1 µM],-23%,.,-1%

# Some of the entries above in another layout.
Structure	LASV entry inh	Cruzain Triton	RE007 growth inh	NS1 inh	Marburg entry inh	StopGo reporter	SARS PLpro yeast	Cruzain inh noDet
CCOC(=O)Nc1nnc(-c2cccc(OC)c2)s1	-7%	1.5%	-30%	-17%	17%	40%[activator]	-17%	7%
COc1ccc(OC)c(Nc2cc(C(=O)NCc3ccccc3)c3ccccc3n2)c1	-9%[46.1 µM]	6.5%	.	.	-4%[46.1 µM]	-22%	.	-5%

# Later entries
SMILES,LASV entry inh,Cruzain Triton,RE007 growth inh,NS1 inh,Marburg entry inh,StopGo reporter,SARS PLpro yeast,Cruzain inh noDet
C[C@H](O)c1[nH]c2cc(F)ccc2c1[C@H](C)O,.,.,-4%,14%,.,0%,1%,.
Cc1ccc(S(=O)(=O)CCc2nc3ccccc3s2)cc1,-2%,-4.3%,-26%,-8%,21%,18%,14%,-18%
COc1ccc(-n2nc(N)c3c(=O)oc(N(C)C)nc32)cc1,1%,-2.8%,-9%,-5%,0%,8%,-9%,12%
Cn1c(CNC(=O)c2ccccc2F)nnc1SCCOc1ccccc1,-15%,.,-5%,-2%,?,-10%,1%,.
O=C(c1sccc1-c1ccccc1)N1CCN(S(=O)(=O)c2ccccc2F)CC1,3%,.,-1%,.,?,?,0%,.
CCn1nc(NC(=O)c2cccs2)c2cc3ccccc3nc21,.,.,5%,-3%,.,-14%,8%,.
COc1ccc(C(C)=O)cc1COC(=O)Cn1cnc2ccccc2c1=O,?,-4.2%,12%,2%,20%,0%,3%,6%
Cc1ccc(S(=O)(=O)N2CCC[C@H]2C(=O)OCCN2C(=O)c3ccccc3C2=O)cc1,2%,.,4%,.,-16%,-15%,2%,.
Cc1ccc(C)c(NC2=NCC(=O)N2C2CCCCC2)c1,-14%,-2.8%,32%,-3%,14%[46.1 µM],-11%,4%,-11%
O=C(NC(c1ccc(Cl)cc1)c1cc(Cl)c2cccnc2c1O)c1cccnc1 (centres undefined),?,5.5%,5%,20%,?,?,2.5µM*,?
O=C1CN(C(=O)COC(=O)/C=C/c2ccc(OC(F)F)cc2)c2ccccc2N1,?,-3.8%,8%,-1%,6%,?,-2%,?
COc1ccc2oc(=O)c(C(=O)NCCc3c(C)[nH]c4c(Cl)cccc34)cc2c1,6%[46.1 µM],-4.8%,.,.,0%[46.1 µM],?,.,-5%
CCCCNC(=O)Cn1c(=O)cc(C)c2c(C)nn(-c3cccc(Cl)c3C)c21,?,0.8%,.,.,.,11%,.,-17%
O=[N+]([O-])c1ccc2c(c1)ncn2CCc1ccccc1,.,.,-17%,-24%,.,-16%,-7%,.
CN(C)c1oc(COc2ccccc2F)nc1C#N,?,0.6%,-2%,0%,1%[46.1 µM],19%,-2%,4%
COc1ccc(-c2cc3ccccc3n2CC(O)CN2CCOCC2)cc1 (centres undefined),-5%,1.9%,1%,?,-11%,-5%,-3%,12%
CCCCOc1ccc(C(=O)NCC(=O)NCC(c2ccco2)N2CCCCC2)cc1 (centres undefined),-14%,.,-27%,.,-2%,27%,-7%,.
COc1ccc(C(C(=O)NC2CCCC2)N(C(=O)c2csnn2)C2CC2)cc1 (centres undefined),-2%,.,-6%,3%,-3%[46.1 µM],8%,-1%,.
COc1cccc(-n2c(=S)sc3c(=O)n(-c4ccccc4C)c(SCC(=O)O)nc32)c1,19%[46.1 µM],.,7%,?,7%[46.1 µM],-10%,-1%,.
CCOC(=O)C1(Cc2ccccc2C(F)(F)F)CCN(Cc2ccc(COC)o2)CC1,?,.,3%,8%,?,?,0%,.
COCCCN1CC(=O)N2C(c3cccc(OC)c3)c3[nH]c4ccccc4c3C[C@H]2C1=O (some centres undefined),-1%[46.1 µM],.,10%,4%,-1%[46.1 µM],8%,16%,.
O=C(NC1CC1)c1cccc(Nc2ccc(-c3ccc4c(c3)OCCO4)nn2)c1,?,4.8%,6%,-15%,?,?,-3%,-6%
CCOc1ccccc1NC=C1C(=O)OC(C)(C)OC1=O,?,-2.3%,?,-11%,?,14%,0%,0%
CCc1ccccc1OCc1nc2ccc(S(=O)(=O)N3CCOCC3)cc2[nH]1,7%,-3.6%,32%,2%,-3%,-21%,-3%,5%
CSCCC(NS(=O)(=O)c1ccc(Cl)cc1)C(=O)O (centres undefined),7%[46.1 µM],.,0%,3%,?,-8%,3%,.
O=C(O)c1ccc(N=Cc2c(O)[nH]c(=O)[nH]c2=O)cc1,-1%,.,0%,-5%,15%,3%,-2%,.
O=C(c1cccc(F)c1)N1CCC2(CC1)NCCc1[nH]cnc12,.,.,4%,0%,.,-22%,1%,.
COc1ccc2c(CC(=O)Nc3ccc(OC)nc3)coc2c1,-7%,.,13%,.,?,22%,-1%,.
O=C(NCCCN1CCOCC1)c1ccc(S(=O)(=O)Nc2ccccc2)cc1,1%[46.1 µM],.,21%,.,6%,5%,2%,.
CC1(C)CC(NC(=S)NC2CC2)CC(C)(C)N1,2%,.,2%,-1%,-11%[46.1 µM],-12%,0%,.
Cc1nn(Cc2ccccc2)c(C)c1C(=O)NCc1ccccc1F,?,.,-1%,.,9%[46.1 µM],-2%,3%,.
Cc1cc2nc(-c3ccc(OCc4ccc(F)cc4)cc3)cc(C(F)(F)F)n2n1,5%[46.1 µM],1.9%,.,.,-8%[46.1 µM],-9%,.,-11%
CC(=O)Oc1ccc(NC(=O)Cc2ccccc2)cc1,17%,-2.7%,-6%,2%,13%,29%,2%,3%
CCCNNC(=O)C(O)(c1cccc(C)c1)c1cccc(C)c1,18%,2.2%,3%,0%,?,-3%,-9%,6%
O=C1CC(N(C(=O)c2ccco2)c2cccc(Cl)c2)C(=O)N1c1cccc(Cl)c1 (centres undefined),-11%[14.3 µM],-4.9%,?,6%,-1%,-8%,-10%,3%
CCOc1cc(-c2nnc(NC(=O)C3=COCCO3)o2)cc(OCC)c1OCC,-17%[46.1 µM],.,-17%,.,13%,-7%,-2%,.
COc1ccccc1NC(=O)CCC(=O)Nc1nnc(C2CCCCC2)s1,12%[46.1 µM],.,2%,19%,5%[46.1 µM],10%,.,.
